Screens as filed in PubChem.
RGS4 pot – potentiators or activators of RGS4 | HEK293 M3R/inducible RGS4, carbachol calcium flux Fluo4; stronger effect = lower value | B-score at 10 µM | hit rate 0.92% among 310,000 | AID 463111;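 active = B-score of the integrated calcium signal more than 4 SD below the library mean, with starting fluorescence not abnormally high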;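 note: negative B-score means reduced calcium response which marks RGS4 activation or potentiation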
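Detection: kinetic calcium fluorescence imaging with Fluo4-AM dye, 2 µM / Material: HEK293 cells with stable M3R and inducible RGS4 / Schedule: recording 10 s baseline at 1 Hz, 100 s post-agonist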
KCNK9 block – inhibitors of human KCNK9 two-pore domain potassium channel; HEK293 KCNK9, FluxOR thallium flux fluorescence; stronger effect = lower value; B-score at 10 µM; hit rate 1.2% among 310,000; AID 488922;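 active = ratio B-score over 3 SD below the library mean, with starting fluorescence within 5 SD of its mean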;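 note: negative B-score means less thallium flux so channel inhibition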
MrgX1 ag – activates human MrgX1 receptor signaling; AID 588627; hit rate 0.44% among 310,000; B-score at 10 µM; MrgX1-HEK293 cells, Fluo-4 calcium fluorescence, agonist mode; stronger effect = higher value; Q96LB2;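 active = calcium response B-score plate-corrected fluorescence ratio at least 3 library SD, with starting fluorescence B-score inside 5 SD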
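System: HEK293 cells stably expressing human MrgX1 receptor; Dosing: test compound in the initial addition of three; Schedule: overnight plating, then 30 min 37 °C plus 30 min room-temperature dye loading; Detection: kinetic calcium dye fluorescence, Fluo-4 NW; Controls: per-plate positive and negative controls for Z′ factor.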
MrgX1 allo act – human MrgX1 positive allosteric modulation, primary screen | Q96LB2 | hit rate 0.63% among 310,000 | B-score at 10 µM | AID 588675 | MrgX1-HEK293, Fluo-4 calcium flux, FDSS; stronger effect = higher value;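 active = plate-corrected calcium response at least 3 library SD above typical, normal starting fluorescence, not activating the receptor alone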;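 note: compound read alongside a low EC10 to EC30 dose of BAM8-22 agonist; peak minus trough fluorescence over baseline measured at the second addition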
RGS4 block – inhibitors of human RGS4. P49798. HEK293 M3R/RGS4 inducible, Fluo-4 calcium flux; stronger effect = higher value; triggered by carbachol at its EC20. B-score at 10 µM. hit rate 0.45% among 310,000. AID 463165;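 active = B-score, a plate-corrected calcium signal, over three deviations above library mean, with baseline fluorescence within five deviations of library mean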;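 note: RGS4 expression induced by doxycycline in cells with stable M3 receptor; B-score is computed from the integrated fluorescence ratio over baseline after carbachol; higher B-score means a larger calcium signal and so more RGS4 inhibition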
TMEM16A inh – inhibitors of mouse TMEM16A calcium-activated chloride channel; Q8BHY3; HEK293 TMEM16A/YFP iodide influx fluorescence, ionomycin; normalized B-score (activity score, 25-100; higher = stronger inhibition) at 10 µM; hit rate 1.2% among 310,000;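 active = ratio plate-corrected score three or more library SD toward inhibition, starting fluorescence score within five deviations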;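 note: score derived from kinetic fluorescence span divided by baseline fluorescence per well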
ANO1 activ – mouse TMEM16A channel activation, primary screen; B-score at 10 µM; hit rate 0.3% among 340,000; HEK293 TMEM16A/YFP-H148Q/I152L, iodide quench fluorescence; stronger effect = lower value;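 active = fluorescence-ratio B-score plate-corrected deviation score at least 3 library SD below zero, with starting fluorescence score within 5 deviations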;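 note: channel opened by trigger with iodide after compound preincubation; score built on the fluorescence ratio of max minus min over baseline; more negative score means more quench and so TMEM16A activation or potentiation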
KCNK3 inh – human KCNK3 channel inhibition, primary screen | O14649 | CHO-KCNK3 thallium flux, FluxOR fluorescence; stronger effect = lower value | B-score at 10 µM | hit rate 0.84% among 340,000;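 active = B-score under library mean minus 4 SD, starting fluorescence ratio at most library mean plus 5 SD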;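 note: more negative B-score means stronger inhibition of thallium flux through KCNK3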
Target sequence (O14649 whole entry, looked up): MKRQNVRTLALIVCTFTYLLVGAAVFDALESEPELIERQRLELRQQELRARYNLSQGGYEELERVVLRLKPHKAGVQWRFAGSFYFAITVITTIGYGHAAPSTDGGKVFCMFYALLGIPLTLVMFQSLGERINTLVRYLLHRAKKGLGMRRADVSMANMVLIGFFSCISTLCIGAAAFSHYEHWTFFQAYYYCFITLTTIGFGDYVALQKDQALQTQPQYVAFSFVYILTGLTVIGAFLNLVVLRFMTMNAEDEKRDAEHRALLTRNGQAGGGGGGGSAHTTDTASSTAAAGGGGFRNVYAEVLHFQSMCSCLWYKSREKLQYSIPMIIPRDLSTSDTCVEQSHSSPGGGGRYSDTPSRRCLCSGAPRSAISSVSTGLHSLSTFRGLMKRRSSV
* = called active by the depositor; i = inactive; . = no result given. A portion of the library; count on the stated rates, not on these rows.

Molecule,RGS4 block,KCNK3 inh,ANO1 activ,MrgX1 allo act,KCNK9 block,TMEM16A inh,RGS4 pot,MrgX1 ag
COC(=O)[C@@H]1C(OC(=O)c2ccccc2)CC2CCC1N2C (stereo partly drawn),.,i,i,.,.,.,.,.
CC(NC(C)(C)C)C(=O)c1cccc(Cl)c1 (stereo not drawn),i,i,i,i,i,i,i,i
CN1CCc2cc(O)cc3c2[C@H]1Cc1ccc(O)c(O)c1-3,7.3*,i,i,i,i,i,i,i
CC[C@H]1CN2CC[C@@]3(C(=O)Nc4ccccc43)[C@@H]2C[C@@H]1/C(=C\OC)C(=O)OC,i,.,.,i,i,i,i,i
c1ccc2c(c1)Sc1ccccc1N2CC1CN2CCC1CC2 (stereo not drawn),i,i,i,i,i,i,i,i
CC[N+](CC)(CC)CC,i,i,i,i,i,i,i,i
CCN1C[C@@]2(COC)C3[C@@H](OC)[C@H]4[C@@H]1[C@@]3(C1C[C@@]3(O)[C@H](OC(=O)c5ccccc5)C1[C@]4(OC(C)=O)[C@@H](O)[C@H]3OC)[C@@H](OC)C[C@H]2O (stereo partly drawn),i,.,.,i,i,i,i,i
CCOC(=O)C1CCCN(c2ccc([N+](=O)[O-])c3nonc23)C1 (stereo not drawn),i,i,i,.,i,.,i,.
CN(C)[C@@H]1C(=O)C(C(N)=O)=C(O)[C@@]2(O)C(=O)C3=C(O)c4c(O)ccc(Cl)c4[C@@](C)(O)[C@H]3C[C@@H]12,i,i,i,i,i,i,i,i
CCC1C2CC3C4N(C)c5ccccc5C45CC(C2C5O)N3[C@@H]1O (stereo partly drawn),i,i,i,i,i,i,i,i
COc1cc2c(cc1OC)[C@@H]1C(=O)c3ccc4c(c3O[C@@H]1CO2)C[C@H](C(C)C)O4,i,i,i,i,i,i,i,i
C[C@]12CCC(=O)C[C@@H]1CC[C@@H]1[C@@H]2CC[C@]2(C)[C@@H](O)CC[C@@H]12,.,i,i,.,.,.,.,.
CC(=O)[C@H]1CC[C@H]2[C@@H]3CC[C@H]4C[C@H](O)CC[C@]4(C)[C@H]3C(=O)C[C@]12C,i,i,i,i,i,i,i,i

3 consecutive compounds from above, quoted:
Molecule,RGS4 block,KCNK3 inh,ANO1 activ,MrgX1 allo act,KCNK9 block,TMEM16A inh,RGS4 pot,MrgX1 ag
COC(=O)[C@@H]1C(OC(=O)c2ccccc2)CC2CCC1N2C (stereo partly drawn),.,i,i,.,.,.,.,.
CC(NC(C)(C)C)C(=O)c1cccc(Cl)c1 (stereo not drawn),i,i,i,i,i,i,i,i
CN1CCc2cc(O)cc3c2[C@H]1Cc1ccc(O)c(O)c1-3,7.3*,i,i,i,i,i,i,i

Only MrgX1 ag, KCNK9 block and RGS4 block (2 entries from above):
SMILES	MrgX1 ag	KCNK9 block	RGS4 block
CN1CCc2cc(O)cc3c2[C@H]1Cc1ccc(O)c(O)c1-3	i	i	7.3*
CC[C@H]1CN2CC[C@@]3(C(=O)Nc4ccccc43)[C@@H]2C[C@@H]1/C(=C\OC)C(=O)OC	i	i	i

Entries above that have a Cl atom (2):
Molecule,RGS4 block,KCNK3 inh,ANO1 activ,MrgX1 allo act,KCNK9 block,TMEM16A inh,RGS4 pot,MrgX1 ag
CC(NC(C)(C)C)C(=O)c1cccc(Cl)c1 (stereo not drawn),i,i,i,i,i,i,i,i
CN(C)[C@@H]1C(=O)C(C(N)=O)=C(O)[C@@]2(O)C(=O)C3=C(O)c4c(O)ccc(Cl)c4[C@@](C)(O)[C@H]3C[C@@H]12,i,i,i,i,i,i,i,i
